Bioassay records as filed in PubChem.
Mtb growth: M. tuberculosis H37Rv growth inhibitors, H37Rv strain (AID 1626); M. tuberculosis H37Rv growth inhibition; higher % means a stronger effect; inhibition, % at 10 µM; hits with a dose series show IC50 in µM; 220,000 tested, 0.95% active;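 active = confirmed in a dose series; inconclusive = inhibition above 80% but not taken into the dose series; inactive = below 80% or under 30% at every dose of the series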;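 also: bacteria incubated seven days before Alamar blue readout; 0% = bacteria only wells and 100% = bacteria with antibiotic wells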
RecA intein inh: Mtb RecA intein splicing inhibitors, primary screen, biochemical, fluorescence, HTS; Protein RecA (Mycobacterium tuberculosis (strain ATCC 25618 / H37Rv)), P9WHJ3; cell-free RecA intein splicing; inhibition, %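 (about 9 µM by stock and volumes)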; 290,000 tested, 0.75% active; AID 2221, 2009; in the data active = inhibition above about 30%; inconclusive = no clear call, values can overlap the other calls;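 also: 0% = vehicle wells and 100% = reference inhibitor control wells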
Target sequence (P9WHJ3 whole entry, looked up): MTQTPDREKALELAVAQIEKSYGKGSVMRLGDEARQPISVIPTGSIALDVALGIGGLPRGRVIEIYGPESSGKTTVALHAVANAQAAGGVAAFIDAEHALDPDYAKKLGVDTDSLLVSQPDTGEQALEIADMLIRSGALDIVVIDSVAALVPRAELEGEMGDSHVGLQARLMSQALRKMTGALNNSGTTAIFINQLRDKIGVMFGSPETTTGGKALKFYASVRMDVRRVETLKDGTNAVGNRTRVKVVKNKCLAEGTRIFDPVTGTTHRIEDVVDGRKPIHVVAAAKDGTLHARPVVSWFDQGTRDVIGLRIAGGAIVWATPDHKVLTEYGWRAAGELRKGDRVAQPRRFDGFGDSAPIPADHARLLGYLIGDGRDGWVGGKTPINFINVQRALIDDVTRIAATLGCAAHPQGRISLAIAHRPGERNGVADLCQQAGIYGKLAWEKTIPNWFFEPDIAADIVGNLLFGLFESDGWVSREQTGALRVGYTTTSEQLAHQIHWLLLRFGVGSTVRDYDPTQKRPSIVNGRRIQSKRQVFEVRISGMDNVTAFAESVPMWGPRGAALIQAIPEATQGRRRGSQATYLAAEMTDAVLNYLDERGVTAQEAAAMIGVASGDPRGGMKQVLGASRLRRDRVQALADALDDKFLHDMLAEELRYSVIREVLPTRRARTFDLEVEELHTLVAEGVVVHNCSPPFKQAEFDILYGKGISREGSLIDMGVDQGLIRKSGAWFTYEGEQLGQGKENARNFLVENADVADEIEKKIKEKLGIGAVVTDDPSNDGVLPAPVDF
YopH PTP inh: YopH tyrosine phosphatase inhibitors, primary screen, biochemical, fluorescence Ex485/Em525; inhibition, %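 (about 10 µM by stock and volumes)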; 140,000 tested, 0.16% active; AID 898, 2007;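 active = inhibition of 50% or more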;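 also: controls were vehicle for no effect and minimum signal wells for full effect; inactives centre near -20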
Mtb bLac sens: beta-lactam sensitization of Mtb H37Rv, H37Rv | M. tuberculosis H37Rv growth with meropenem, percent inhibition; hits of this screen are not shown here | inhibition, % at 25 µM | 330,000 tested, 0.27% active;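 active = about 74% or more and at least 40 points above the plate without the antibiotic, then above 30% in a dose series; inconclusive = first-round hits that could not be retested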;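 also: growth measured after seven days incubation then overnight dye step; 0% = bacteria only wells and 100% = bacteria with antibiotic; twin plates without the antibiotic show which effects depend on it; some results filed as inactive read as strong as hits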
Arbovirus anti: antivirals against arbovirus infection, primary screen, cell-based, full library, 10K replicate subset; arbovirus infection cell-based antiviral screen; inhibition, % at 10 µM; 200,000 tested, 0.37% active; AID 1251, 2008;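 active = inhibition from about 30%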;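 also: bluetongue infection of BSR cells; cell survival read as ATP light after 72 h; 0% = infected wells without compound and 100% = uninfected wells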
Arbovirus anti repeat: further read-out of Arbovirus anti, marked with its call; inhibition, %; measured here: 10K subset replicate screen; many hits read low in the repeat;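 first of two repeat runs on a subset; 0% = infected and 100% = uninfected wells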
The depositor's hits bear a star; ? = inconclusive; . = no result given. Some of the compounds tested; the hit share may differ from the screen's.

SMILES	Mtb growth	RecA intein inh	YopH PTP inh	Mtb bLac sens	Arbovirus anti	others
C=CCn1c(N)cc(=O)nc1SCC(=O)Nc1ccc(C(=O)OCC)cc1	.	-0.4	.	2	.
C=CCn1c(O)c(C=Nc2c(C)n(C)n(-c3ccccc3)c2=O)c(=O)[nH]c1=O	-2%	-1.7	.	-3	.
Cc1ccc(CN2CCN(/N=C\C(Br)=C\c3ccccc3)CC2)cc1	6%	-0.7	-21	4	-12
CCCn1c(C)c(C(=O)OCC)c(O)c(-c2ccccc2)c1=O	.	0.8	.	-1	.
O=C(Nc1nc(-c2ccccc2)cs1)c1ccc(Br)o1	7%	-1.7	-34	0	-13
CC(=O)N1CN(C2CC(C)(C)NC(C)(C)C2)Cc2c1sc1c2CCCC1	3%	-3.1	-4	-5	-12
CN1C(=O)OC2(C)CCc3ccccc3C12C (stereo not given)	-7%	-1.3	-35	4	1
CCOC(=O)c1csc(Nc2nc3ccc(F)cc3s2)n1	.	2.1	-42	66	-25
O=C(CCN1C(=O)/C(=C\c2ccccc2)SC1=S)NNC(=O)c1ccncc1	-26%	.	.	-3	.
Cn1c(=O)c(Sc2ccccc2)c(O)c2ccccc21	-2%	.	.	-4	.
CC(=O)N1N=C(c2ccccc2)CC1c1ccccc1[N+](=O)[O-] (stereo not given)	-1%	2.8	-22	-3	-6
O=C(NC1=NCCS1)c1ccc(N2CCCC2=O)cc1	-2%	-3.9	.	-2	-1
O=C1NCN(c2ccccc2)C12CCN(c1nnnn1-c1ccccc1)CC2	0%	-0.5	-1	-15	12
Cc1ccccc1OCC(=O)N(Cc1nc(-c2ccccc2)no1)C(C)C	-2%	6.9	-9	-1	17
COCCNC(=O)c1ccc(CS(=O)(=O)c2ccc(OC)cc2)o1	-5%	2.5	-4	?	-1
CCOC(=O)Cn1c(-c2cccnc2Cl)nc2cc(Cl)c(Cl)cc21	1%	-1.7	8	8	-1
CCOc1ccc(NC(=O)[C@H](Cc2ccccc2)NC(=O)C2CCNCC2)cc1	.	-0.3	.	-5	.
Cc1cccc(C)c1NC(=S)Nc1ccc(F)cc1	2%	1.9	.	-2	2
O=C(Nc1nnc(-c2ccncc2)o1)c1ccccc1F	1%	-0.8	.	-9	9
CN(c1ccccc1)S(=O)(=O)c1ccc(C(=O)NCCc2ccc(F)cc2)cc1	.	8.8	.	-4	.
O=C(CN1C(=O)CSc2ccc(S(=O)(=O)N3CCCCC3)cc21)NCc1ccccc1	.	0.9	.	5	.
COc1ccc(N(CC(=O)N2CCN(c3cccc(Cl)c3)CC2)S(=O)(=O)c2c(C)noc2C)cc1	.	3.2	.	5	.
COC(=O)c1ccccc1NC(=O)c1c(O)c2c([nH]c1=O)CCCC2	-4%	0.6	-30	5	4	Arbovirus anti repeat=4
Nc1[nH]c(=O)nc(Nc2ccccc2)c1N=O	.	-4.1	.	6	.
O=C(CN1CCCCC1)N1CCCc2ccccc21	0%	-0.4	1	1	1
CCOc1ccc(CN2CCNC(=O)C2CC(=O)NCc2ccccn2)cc1 (stereo not given)	1%	-2.3	.	-5	3
Cc1ccc(Sc2ncccc2C(=O)NCc2cc([N+](=O)[O-])ccc2O)c(C)c1	.	2.4	.	6	.
CCS(=O)(=O)N1CCN(C2CCC(c3ccccc3)CC2)CC1 (stereo not given)	-9%	-2.9	-22	-3	-9
Cc1ccc(CNC(=O)C2CCCN(S(=O)(=O)c3ccc(-n4cnnn4)cc3)C2)cc1 (stereo not given)	.	-0.8	.	2	.
CC(C)CN1CCC(=O)N([C@H](CSc2ccc(Br)cc2)c2ccccc2)CC1	-1%	1.7	.	-10	.
Cc1cccc(COc2ccc(/C=N/NC(=O)c3nnn(-c4nonc4N)c3C)cc2)c1	.	0.2	.	-6	.
Cc1cc2oc(=O)cc(COC(=O)Cn3cnnn3)c2cc1C(C)C	-5%	0.9	-35	-9	-4
Cc1ccnc(SCC(=O)c2cccs2)n1	-6%	-0.5	.	0	3
CCCCCCNC(=O)c1cc(-c2ccco2)nc2ccccc12	-7%	11	-2	5	10
COc1cc(C)c(-c2cc(C(=O)O)c(C)o2)cc1C(C)C	12%	2.4	-24	-3	1
Cc1ccc(C(=O)CSc2nc3ccc(C(=O)NCCN4CCCCC4)cc3c(=O)[nH]2)cc1	3%	0.4	.	-10	.
CCOc1ccc(C(Nc2cccnc2)c2cc(Cl)c3cccnc3c2O)cc1 (stereo not given)	22%	3.6	.	-5	-37
Cc1cccc(-n2c(Cc3cc(=O)[nH]c(=O)[nH]3)nnc2SC(C)C)c1	6%	-0.1	-20	-4	7	Arbovirus anti repeat=6
CC1=Nc2ccccc2/C1=C/c1c(O)n(C)c(=O)[nH]c1=O	.	-1.4	.	10	.
CC(C)(C)C(=O)Nc1ccc(C(=O)N/N=C/c2ccccc2OC(=O)c2ccc(Cl)cc2Cl)cc1	-1%	-2.9	-33	11	-33
COc1cccc(C(=O)/C=C2\Sc3ccccc3N2C)c1	45%	-2.8	.	39	-7
O=C(CSCc1ccco1)Nc1cc(C(F)(F)F)ccc1N1CCOCC1	1%	10	-11	9	2	Arbovirus anti repeat=3
O=C(CN1CCC(NC(=O)c2ccco2)CC1)Nc1cccc2ccccc12	2%	-0.1	-9	-10	4
Brc1nnc2n1-c1ccccc1Sc1ccccc1-2	7%	.	-3	-1	-7
COc1ccc(-c2nc(N)ncc2-c2ccc(OC)c(OC)c2)c(O)c1	.	-1.8	.	-2	.
CCCCCCCC1CC(CSc2ncn[nH]2)OC1=O (stereo not given)	5%	1.4	-23	-5	-3
CCC(C)(C)NC(=O)C(c1ccccc1F)N(C(=O)c1ccn[nH]1)c1ccccc1 (stereo not given)	5%	1.6	2	-1	-4
COc1ccc2c(c1)cc1c(=O)n(CC(=O)NCCCOC(C)C)nc(C)n12	.	0.0	.	2	.
C=CCn1c(CCNC(=O)c2ccccc2F)nnc1SCC(=O)Nc1ccc(OC)cc1	4%	-0.8	.	-1	-2
COc1ccc(C(c2sc3nc(C)nn3c2O)N2CCC(C(N)=O)CC2)cc1OC (stereo not given)	7%	1.6	-12	3	1	Arbovirus anti repeat=2
CCCCn1c(=N)n(CC(=O)c2ccc(Br)s2)c2ccccc21	26%	1.7	.	32	.
C(=N\N1CCN(c2ccccc2)CC1)/c1ccccc1	4%	2.4	.	-11	-4
CCCNS(=O)(=O)c1cc2c3c(c1)C(C)C(=O)N3CCC2 (stereo not given)	.	0.3	.	-3	.
O=C1c2ccc(Oc3ccc4c(c3)C(=O)N(CCCO)C4=O)cc2C(=O)N1CCCO	-6%	3.2	-37	-6	-4
O=C(CNC(=O)c1cccs1)OCC(=O)c1ccccc1Cl	-2%	-3.5	.	10	21
CCN(CC(=O)NC(C)C)Cc1nc2c(Br)cc(Br)cc2c(=O)[nH]1	-5%	0.0	.	24	.
COc1ccc(C(=O)Nc2cccc(NC(=O)c3ccc(OC)cc3OC)n2)c(OC)c1	.	0.7	.	-3	.
Cc1ccc(CC(NC(=O)c2ccccc2)C(=O)NC(C)C(=O)O)cc1 (stereo not given)	4%	1.7	-24	-11	3
Cn1c(-c2cccs2)[n+](C)c2ccccc21	2%	2.2	.	1	1
Cc1cc(=O)oc2cc(OCCSCCN3CCCC3)ccc12	-1%	-2.1	.	-2	.

As a working copy, 17 of the compounds above.
SMILES	Mtb growth	RecA intein inh	YopH PTP inh	Mtb bLac sens	Arbovirus anti	others
O=C(CSCc1ccco1)Nc1cc(C(F)(F)F)ccc1N1CCOCC1	1%	10	-11	9	2	Arbovirus anti repeat=3
O=C(CN1CCC(NC(=O)c2ccco2)CC1)Nc1cccc2ccccc12	2%	-0.1	-9	-10	4
Brc1nnc2n1-c1ccccc1Sc1ccccc1-2	7%	.	-3	-1	-7
COc1ccc(-c2nc(N)ncc2-c2ccc(OC)c(OC)c2)c(O)c1	.	-1.8	.	-2	.
CCCCCCCC1CC(CSc2ncn[nH]2)OC1=O (stereo not given)	5%	1.4	-23	-5	-3
CCC(C)(C)NC(=O)C(c1ccccc1F)N(C(=O)c1ccn[nH]1)c1ccccc1 (stereo not given)	5%	1.6	2	-1	-4
COc1ccc2c(c1)cc1c(=O)n(CC(=O)NCCCOC(C)C)nc(C)n12	.	0.0	.	2	.
C=CCn1c(CCNC(=O)c2ccccc2F)nnc1SCC(=O)Nc1ccc(OC)cc1	4%	-0.8	.	-1	-2
COc1ccc(C(c2sc3nc(C)nn3c2O)N2CCC(C(N)=O)CC2)cc1OC (stereo not given)	7%	1.6	-12	3	1	Arbovirus anti repeat=2
CCCCn1c(=N)n(CC(=O)c2ccc(Br)s2)c2ccccc21	26%	1.7	.	32	.
C(=N\N1CCN(c2ccccc2)CC1)/c1ccccc1	4%	2.4	.	-11	-4
CCCNS(=O)(=O)c1cc2c3c(c1)C(C)C(=O)N3CCC2 (stereo not given)	.	0.3	.	-3	.
O=C1c2ccc(Oc3ccc4c(c3)C(=O)N(CCCO)C4=O)cc2C(=O)N1CCCO	-6%	3.2	-37	-6	-4
O=C(CNC(=O)c1cccs1)OCC(=O)c1ccccc1Cl	-2%	-3.5	.	10	21
CCN(CC(=O)NC(C)C)Cc1nc2c(Br)cc(Br)cc2c(=O)[nH]1	-5%	0.0	.	24	.
COc1ccc(C(=O)Nc2cccc(NC(=O)c3ccc(OC)cc3OC)n2)c(OC)c1	.	0.7	.	-3	.
Cc1ccc(CC(NC(=O)c2ccccc2)C(=O)NC(C)C(=O)O)cc1 (stereo not given)	4%	1.7	-24	-11	3

Additional structures:
SMILES	Mtb growth	RecA intein inh	YopH PTP inh	Mtb bLac sens	Arbovirus anti	others
CCN(c1ccc(C)cc1C)S(=O)(=O)c1nnc(NC(=O)C(C)(C)C)s1	.	0.7	.	-1	.
N/C(=N\OC(=O)CCC1CCCC1)c1ccc(Cl)cc1	.	4.0	.	-11	.
CCC(=O)N/N=C/c1ccc(-c2ccc(Cl)cc2)o1	?	1.3	.	99	-3
O=C(NCC1COc2ccccc2O1)c1ccc(NC(=O)c2ccco2)cc1 (stereo not given)	0%	-1.8	9	50	-9
O=C(c1ccco1)N1CCN(Cc2cc(=O)c(OCc3cccc(Cl)c3)co2)CC1	.	-1.9	.	-7	.
COc1ccc(Cl)cc1N1C(=O)C2CCCN2C1c1ccc(F)c(F)c1 (stereo not given)	-2%	1.0	-28	0	5	Arbovirus anti repeat=-6
Cn1nc(C(F)(F)F)c(C(=O)Nc2cccc(C(F)(F)F)c2)c1SCc1ccc(Cl)cc1	-1%	-3.8	-40	2	-20
CCOC(=O)C1Cn2c(nc3c(c2=O)C(C)(CC)Cc2ccccc2-3)S1 (stereo not given)	10%	-3.7	-32	8	0	Arbovirus anti repeat=13
O=C(OCC(=O)c1cccs1)c1ccccc1	-6%	1.2	-22	0	-7
Cc1ccc(/C=C2/NC(=O)N(Cc3ccccc3F)C2=O)o1	-2%	-2.7	-30	8	-4
COc1ccc(NC(=O)CCC(=O)OCc2ccc(C(=O)Oc3ccc(Cl)cc3)cc2)cc1	23%	0.6	1	-3	8
Cc1nc(=O)c(-c2ccccc2)c(C)n1CCO	-6%	-1.5	-48	2	-3
O=C(C1c2ccccc2C(=O)N2CCc3ccccc3C12)N1CCN(Cc2ccccc2)CC1 (stereo not given)	-9%	1.2	-30	0	8
CN(C)N1C(N)=C(C#N)C(c2ccsc2)C2=C1CCCC2=O (stereo not given)	4%	-0.8	-9	2	5
O=C(CSc1ncnc2ccccc12)Nc1cccc(S(=O)(=O)N2CCOCC2)c1	6%	19	.	1	2
Cc1ccc2nc(-c3sc4nc(C)cc(C)c4c3N)[nH]c2c1	-5%	-22	-11	-4	-6
COc1ccc(/C=C/c2nc(N)nc(-c3ccccc3O)n2)cc1OC	-1%	-1.8	-27	2	-3
Cc1cc(-c2ccc(C)c(S(=O)(=O)NCCc3ccc(S(N)(=O)=O)cc3)c2)on1	.	1.2	.	-7	.
N=c1sccn1CC(=O)Nc1cccc(Oc2ccccc2)c1	.	2.9	-27	-4	-20
CCc1cc(C(=O)c2ccccc2OC)c(N)s1	2%	1.9	-39	0	-5
CC1(C)Oc2ccc(NC(=O)C3COc4ccccc4O3)cc2O1 (stereo not given)	-7%	-0.5	-50	-2	2
NC(=O)c1nnn(-c2ccccc2)c1N	3%	-4.5	.	0	11
Cc1ccccc1OCC(=O)Nc1ccccc1C(=O)NC1CC1	.	0.0	.	-11	.
COc1ccc(CCNC(=O)CSc2nnc(CNc3ccc(Cl)cc3)o2)cc1OC	3%	-0.8	-22	-1	6
